GLA inh pH 4.5 = qHTS Assay for Inhibitors of Human alpha-Galactosidase at pH 4.5. 230,000 tested, under 10 active. purified enzyme, 4-MU-alpha-Gal fluorescence, pH 4.5. Alpha-galactosidase A (Homo sapiens), P06280. activity change, negative = inhibition, % at 105 µM; inconclusive = small, poorly fitted or top-dose-only inhibition, or a rising curve; inactive = flat fitted curve, though single readings scatter; no compound was filed as active;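 further: 0% = full activity with enzyme and -100% = basal without enzyme; dose as in the result columns while the protocol names 77 µM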
Rango dissoc inh = qHTS Assay for Inhibitors of RanGTP induced Rango (Ran-regulated importin-beta cargo) - Importin beta complex dissociation. Snurportin-1 (Homo sapiens) + GTP-binding nuclear protein Ran (Homo sapiens) + Importin …. Biochemical FRET Rango-importin beta, RanGTP-induced dissociation. Potency, µM (titrated, usually from 46.1 µM), for inactives: at the highest dose activity change, negative = inhibition. actives 0.071% (n = 340,000); active means falling FRET ratio curve, often poorly fitted, with flat reads before Ran was added; inconclusive means other falling curves, or compound fluorescence or quenching; inactive means flat or rising ratio curve;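 further: potency means the concentration at half of the fitted maximal effect; % of control where 0% means no effect; nearly all actives have a fitted effect of over 45% in size; -100% = wells without RanGTP and RCC1; the record marks most hits as doubtful in a second field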
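Two FRET readings bracket the reaction: one 5 min after compound meets Rango–importin beta, another 45 min after RanGTP-RCC1 (0.6 uM Ran, 0.2 uM RCC1, 2 mM GTP) is added. Only the second defines inhibition.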
Rango complex inh = qHTS Assay for Inhibitors of Rango (Ran-regulated importin-beta cargo) - Importin beta complex formation; actives 0.031% (n = 340,000); AID 540263, 2011; Importin subunit beta-1 (Homo sapiens), Q14974; Rango CFP/YFP FRET sensor + importin beta, 45 min; Potency, µM (highest dose often 92.2 µM), for the others: at the highest dose inhibition of complex formation; active = rising FRET ratio curve, often small or poorly fitted; inconclusive = mostly compound fluorescence or quenching in the first reads; inactive = flat curves in all reads;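 further: potency means the concentration at half of the fitted maximal effect; 0% = DMSO wells and 100% = buffer wells lacking importin beta; nearly all actives have a fitted effect of over 15% in size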
Target sequence (Q14974 whole entry, looked up): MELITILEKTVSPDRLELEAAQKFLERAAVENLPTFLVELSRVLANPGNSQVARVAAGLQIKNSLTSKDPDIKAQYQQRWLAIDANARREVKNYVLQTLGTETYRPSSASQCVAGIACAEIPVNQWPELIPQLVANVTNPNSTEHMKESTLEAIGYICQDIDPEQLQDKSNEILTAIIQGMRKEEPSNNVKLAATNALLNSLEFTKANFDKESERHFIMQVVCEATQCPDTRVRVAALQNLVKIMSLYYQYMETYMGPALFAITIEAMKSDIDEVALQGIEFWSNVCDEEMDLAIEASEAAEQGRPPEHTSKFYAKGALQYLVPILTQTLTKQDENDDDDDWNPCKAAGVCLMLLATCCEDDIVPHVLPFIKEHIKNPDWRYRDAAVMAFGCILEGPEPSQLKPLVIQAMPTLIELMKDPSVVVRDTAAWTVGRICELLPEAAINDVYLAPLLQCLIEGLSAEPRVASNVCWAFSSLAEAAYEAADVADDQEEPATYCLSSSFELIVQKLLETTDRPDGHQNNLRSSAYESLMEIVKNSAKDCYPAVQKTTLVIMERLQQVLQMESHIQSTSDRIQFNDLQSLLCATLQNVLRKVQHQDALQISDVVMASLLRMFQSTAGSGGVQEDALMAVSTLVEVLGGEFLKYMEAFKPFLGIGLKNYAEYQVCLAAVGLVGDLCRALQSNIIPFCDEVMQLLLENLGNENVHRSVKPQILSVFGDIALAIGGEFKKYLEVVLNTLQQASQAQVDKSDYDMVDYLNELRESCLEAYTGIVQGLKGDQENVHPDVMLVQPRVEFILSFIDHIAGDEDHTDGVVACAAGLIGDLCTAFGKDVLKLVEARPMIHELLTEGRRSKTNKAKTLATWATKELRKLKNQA
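Inhibition scored from the CFP 486 nm/YFP 530 nm FRET ratio 45 min after adding 0.125 microM importin beta to 50 nM Rango biosensor preincubated 5 min with compound (room temperature, PBS with DTT, Tween-20, BSA). No-importin wells as positive control.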
miR-21 FLuc = qHTS Assay for Modulators of miRNAs and/orActivators of miR-21; HeLa miR-21 FLuc reporter, luciferase, 48 h; Potency, µM (titrated, usually from 38.3 µM), for inactives: at the highest dose reporter change, positive = more light; 340,000 tested, under 10 active; AID 2288, 2010; active = well fitted rising curve with a large enough effect; inconclusive = small, poorly fitted or top-dose-only effect; inactive = no such curve, though single readings can be large or run the other way;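 further: % of control where 0% means no effect; miR-21 action dims this reporter so a rising signal means less miR-21 action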
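Using DMEM plus 10% FBS, HeLa miR-21-FLuc cells are incubated with test compounds (final up to about 40uM) for 48 hours; firefly luciferase signal is then imaged following reagent-mediated lysis.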
An asterisk follows results filed as active; ? = inconclusive; · = not tested or not shown; & = joins results of further samples; [ ] = another dose, or the depositor's remark. Not all compounds are listed, so the mix of outcomes need not match the whole.

SMILES | GLA inh pH 4.5 | Rango dissoc inh | Rango complex inh | miR-21 FLuc
CC(=O)Nc1cccc(NC(=O)Nc2cccc(F)c2)c1 | 5.2 | -10.4% | 2.5% | -18.9%
COC(=O)c1cc2occc2n1Cc1nc(-c2ccccc2F)oc1C | -2.7 | -0.4% | 3.6% | 1.3%&-1.5%
CCOc1ccc2nc(NC(=S)N(C)C)sc2c1 | 0.4 | 0.1% | 0.7% | -12.4%
O=C(/C=C/c1ccc2c(c1)OCO2)NCCSCc1ccc(Cl)cc1 | -24.3 | ? | -1.5% | 14.6%
COc1ccc(C2CC(c3ccccc3C(F)(F)F)=NN2c2ccc(S(N)(=O)=O)cc2)cc1 (centres undefined) | · | ? | ? | ·
COC(=O)C1CCN(C(=O)CCCOc2ccccc2)CC1 | 0.6 | 10.3% | -1.7% | -58.7%
Cc1cccc(Oc2c([N+](=O)[O-])c(=O)n(C)c3ccccc23)c1 | 4.7 | -17.1% | -2.2% | 6.1%
CCN1CCN(S(=O)(=O)c2cccc(S(=O)(=O)N3CCOCC3)c2)CC1 | 4.6 | -8.0% | 2.0% | -1.3%
COCCN1C(=O)C(=O)/C(=C(/O)c2ccc(S(=O)(=O)N3CCOCC3)cc2)C1c1ccc(O)c(OC)c1 (centres undefined) | · | 7.6% | 0.8% | 1.9%
CN(C)c1ccc(C(=O)c2ccccc2)cc1 | -8.8 | 3.4% | 2.1% | -42.0%
CC(C)CN1CCN(CC#Cc2ccccc2)CC1CCO (centres undefined) | -7.2 | -6.8% | -2.9% | -5.3%
CC1CCCC(C)N1/N=C/c1ccccc1F (centres undefined) | · | 0.5% | 1.5% | -0.4%
COc1cc(-c2[nH]ncc2CN(C)Cc2cc(C)[nH]n2)cc(OC)c1OC | -0.3 | 0.0% | -0.9% | -1.1%
CCc1ccc(N2CC(C(=O)Nc3cc(C)ccc3F)CC2=O)cc1 (centres undefined) | -2.9 | 17.7% | 7.7% | -0.4%
COc1ccc(Nc2cc(C)nc(NCc3ccccc3)n2)cc1 | 0.4 | -9.3% | 2.8% | 25.0%
Cc1ccc(S(=O)(=O)N2CCN(S(=O)(=O)c3ccccc3Br)C2=O)cc1 | · | ? | -1.0% | ·
Cc1c(NC(=O)C(C)Sc2nc3ccccc3c(=O)n2CCO)c(=O)n(-c2ccccc2)n1C (centres undefined) | 4.9 | -1.2% | -2.7% | -3.7%
O=C(O)c1ccc2c(c1)OCCO2 | 2.2 | 9.2% | 2.3% | -1.0%
Cc1ccc(S(=O)(=O)N2CCN(C(=O)Cn3nc(C)c([N+](=O)[O-])c3C)CC2)c(C)c1 | · | 0.1% | -2.9% | 0.3%
COC(=O)c1cn(NC(=O)c2cccc(OC)c2)c(=O)c2ccccc12 | 2.4 | -1.1% | -4.5% | -1.4%
c1cnc2ncc3sccc3c2c1 | 4.7 | -11.9% | 1.0% | -4.2%
O=C(COC(=O)COc1ccc(Cl)cc1)Nc1ncc(Br)s1 | · | -1.0% | -0.3% | ·
COc1ccc(OC)c(-c2csc(NC(=O)C3c4ccccc4Oc4ccccc43)n2)c1 | -2.2 | 1.3% | 0.6% | -4.2%
O=C(Nc1ccc(F)cc1)C1CCN(c2nnnn2-c2ccccc2)CC1 | -1.6 | -0.1% | -0.6% | 10.9%
COc1ccc(CC(=O)Nc2nnc(CC(C)C)s2)cc1S(=O)(=O)N1CCOCC1 | · | -6.1% | -10.6% | ·
COc1ccc(C(=O)OCCN2C(=O)c3ccccc3C2=O)cc1 | 4.1 | ? | ? | -19.9%
COc1cccc(-c2ccc(=O)n(CC(=O)Nc3cc4c(cc3NC(C)=O)OCCO4)n2)c1 | -6.1 | 0.6% | 2.3% | 0.6%
CCC(=O)N1c2ccccc2-c2nnc(SC)nc2OC1c1ccc(N(C)C)cc1 (centres undefined) | 0.9 | -3.3% | -2.0% | -2.5%
C=CCN(C(=O)Nc1ccc(F)cc1)C1CC(=O)N(c2ccc(OC)cc2)C1=O (centres undefined) | 4.2 | 2.2% | 0.4% | -3.1%
N#CC1=C(N)OC2=C(CC/C2=C\c2ccccc2Cl)C1c1ccccc1Cl (centres undefined) | 2.5 | ? | ? | -1.5%
CC(C)C(=O)N1CCN(c2ccc(NC(=O)c3cccs3)cc2Cl)CC1 | -2.0 | 11.0% | 5.1% | 18.4%
Cc1ccc(CNCC(O)(c2ccccc2)c2ccc(Cl)cc2)cc1 (centres undefined) | -2.6 | 1.2% | -1.3% | 11.9%
C=CCNC(=O)c1ccc([N+](=O)[O-])c(Cl)c1 | -3.8 | 7.4% | ? | 0.4%
CCSC1=N/C(=C/c2ccsc2)C(=O)N1c1ccccc1 | -5.5 | -1.3% | -1.4% | -4.3%
CCSc1ncc(Cl)c(C(=O)Nc2sc3c(c2C(=O)NCc2cccnc2)CCCC3)n1 | -0.4 | 13.8% | -0.1% | -2.8%
CCCn1c(SCC(=O)N2CCCC(C)C2)nnc1-c1ccccn1 (centres undefined) | 6.1 | -3.9% | 1.1% | -0.7%
Fc1ccccc1NC(=S)Nc1ccc(CN2CCOCC2)cc1 | 4.2[21.1 µM] | -0.5% | 0.0% | -20.4%
CC(C)c1ccc(NC(=S)Nc2cccc3ccccc23)cc1 | · | -15.1% | -14.1% | -30.6%
COc1ccc(OC)c(/C=N/c2oc(-c3ccco3)c(-c3ccco3)c2C#N)c1 | 3.5 | -23.1% | ? | 5.2%
Cc1ccc(OCC(=O)NNC(=O)C2CCN(c3nc(C)cc(C)n3)CC2)cc1 | -1.1 | 2.3% | 5.2% | -0.1%
Cc1onc(C(=O)/C=C/N(C)C)c1C(=O)Nc1nccs1 | 6.0 | -9.7% | 0.8% | -2.6%
Cc1ccc(C)c(NC(=O)c2ccccc2NC(=O)C2CCCO2)c1 (centres undefined) | 8.8 | 13.4% | 4.0% | -1.9%
Cc1cccc(CCN(CC(=O)NCc2ccc(F)cc2)C(=O)c2csnn2)c1 | · | -15.4% | 0.2% | 13.8%
Cn1cc(Cl)c(-c2nc3ccccc3[nH]2)n1 | 7.7 | -4.8% | -1.1% | -40.8%
Cc1ccccc1NC(=O)N1CCC(NC(=O)C2CCCCC2)CC1 | · | 2.2% | -0.7% | 6.1%
O=C(COC(=O)c1cc(S(=O)(=O)N2CCOCC2)c(Cl)cc1Cl)c1ccc[nH]1 | · | -9.3% | -0.3% | ·
CCc1ccc(OCc2cccc(C(=O)N/N=C\c3cnn(C)c3C)c2)cc1 | · | 1.0% | -3.0% | -13.1%
CN(Cc1ccccc1)Cc1c[nH]c2ccccc12 | -4.1 | -16.8% | -2.2% | 0.4%
Cc1cc(C)cc(OCCN2CCOCC2)c1 | · | -13.7% | 3.4% | -2.1%
COc1ccccc1NC(=O)c1ccc(C)s1 | -1.8 | -10.1% | -0.8% | -57.7%
Cc1cc(C(=O)Nc2sccc2C(N)=O)c(C)o1 | · | 10.3% | -2.4% | ·
Cc1ccccc1Nc1nnc(SCC(=O)c2cc3ccccc3o2)s1 | -5.5 | 5.5% | -0.1% | 2.8%
O=C(CCc1ccccc1)Nc1ccccc1F | 6.6 | -2.8% | 0.9% | -51.0%
Cc1occc1C(=O)NCc1nc(-c2ccc(Cl)cc2)no1 | · | -6.1% | -2.6% | -0.1%
COc1cc(Br)c(CC2c3cc(OC)c(OC)cc3CCN2C)cc1OC (centres undefined) | · | 1.0% | 1.2% | ·
COc1cccc(NC(=O)Nc2cc(NC(=O)Nc3cccc(OC)c3)c(C)nc2C)c1 | -3.1 | 26.3% | 3.1% | -2.4%
CC(OC(=O)c1ccc2c(c1)OCCO2)C(=O)c1ccccc1 (centres undefined) | · | -16.3% | 0.3% | ·
COc1cccc(C(=O)NCCS(=O)(=O)NCc2cccs2)c1 | · | -5.1% | -1.8% | ·
Cc1nc(CN(C)C(=O)CC2C(=O)NCCN2Cc2ccc(F)cc2)cs1 (centres undefined) | · | -8.3% | -0.8% | -1.1%
CC(=O)c1ccc(N2C(=NC(=O)C(C)C)SC3CS(=O)(=O)CC32)cc1 (centres undefined) | 3.8 | -0.7% | 0.7% | -2.1%

The last 6 compounds of the section before come first, to join the parts:
SMILES | GLA inh pH 4.5 | Rango dissoc inh | Rango complex inh | miR-21 FLuc
COc1cc(Br)c(CC2c3cc(OC)c(OC)cc3CCN2C)cc1OC (centres undefined) | · | 1.0% | 1.2% | ·
COc1cccc(NC(=O)Nc2cc(NC(=O)Nc3cccc(OC)c3)c(C)nc2C)c1 | -3.1 | 26.3% | 3.1% | -2.4%
CC(OC(=O)c1ccc2c(c1)OCCO2)C(=O)c1ccccc1 (centres undefined) | · | -16.3% | 0.3% | ·
COc1cccc(C(=O)NCCS(=O)(=O)NCc2cccs2)c1 | · | -5.1% | -1.8% | ·
Cc1nc(CN(C)C(=O)CC2C(=O)NCCN2Cc2ccc(F)cc2)cs1 (centres undefined) | · | -8.3% | -0.8% | -1.1%
CC(=O)c1ccc(N2C(=NC(=O)C(C)C)SC3CS(=O)(=O)CC32)cc1 (centres undefined) | 3.8 | -0.7% | 0.7% | -2.1%
CC/C(C)=C1\SC(N2CCN(c3cccc(C(F)(F)F)c3)CC2)=NC1=O | 2.9 | 11.9% | 0.6% | -2.7%
CC(C)[C@H](NC(=O)Nc1cccc(C(F)(F)F)c1)C(=O)O | 3.1 | -12.1% | 0.1% | -7.9%
Cc1ccccc1CC(=O)Nc1ccc(C(=O)N2CCCC2)cc1 | · | -5.1% | 1.1% | -34.0%
CC(C)(C)c1ccc(-c2nnc(N)o2)cc1 | 0.7 | 14.9% | -1.4% | -47.9%
CCC1CCCCN1CCCNC(=O)CCC(=O)N1CCOc2ccccc21 (centres undefined) | · | 19.9% | ? | 4.1%
O=C(CN1C(=O)NC2(CCCCC2)C1=O)N1CCN(S(=O)(=O)c2ccc(Cl)s2)CC1 | · | -8.7% | -2.4% | ·
Cc1ccc(NC(=O)c2cnc3ccccc3n2)cc1C | 2.8 | -6.4% | -0.1% | -73.1%
COc1cc2cc(Oc3ccc4ccc(=O)oc4c3)c(=O)oc2cc1O | -10.8&-3.9 | ? | ? | -25.8%
Cc1ccc2nc(Nc3nc(C)cc(C(F)(F)F)n3)nc(C)c2c1 | 3.6 | -5.0% | 0.0% | -1.4%
Nc1cccc(O)c1 | · | -9.3% | -1.8% | ·
O=C(Nc1ccc(F)cc1)c1sc2cc(C(F)(F)F)cnc2c1-c1cccs1 | -0.7 | -8.7% | ? | 3.7%
O=C1Nc2ccccc2S/C1=C\C(=O)N1CCCC1 | 1.7 | · | · | -41.8%
Cc1ccc(NC(=O)c2ccc(Cl)c(S(=O)(=O)N3CCCCCC3)c2)nc1 | · | -6.3% | -3.5% | ·
O=C(CCNC(=O)c1ccccc1)NN=Cc1ccc(Br)o1 | · | 1.0% | -0.4% | ·
CCC(C)NC(=O)C1CCN(S(=O)(=O)c2ccc(-n3cnnn3)cc2)CC1 (centres undefined) | · | 1.2% | 0.0% | 0.5%
CN(C)c1nccc(N(Cc2ccccc2)Cc2ccccc2)c1C#N | 7.5 | -16.3% | 2.5% | -27.3%
COc1ccc(CCC(=O)OCC(=O)c2ccc[nH]2)cc1OC | · | -0.3% | 5.6% | ·
CC(C)(C)NC(=O)CSc1n[nH]c(=O)n1-c1ccccc1 | -3.0 | 19.6% | 1.6% | -2.2%
COc1ccc(OC)c(N2C(=O)CC(Cc3cc(C)cc(C)c3)C2=O)c1 (centres undefined) | 1.6 | -3.8% | -1.5% | -13.3%
C/C(CC(=O)N(C(C)C)C(C)C)=N\NC(=O)c1ccccc1Br | 5.4 | 13.3% | 0.5% | -9.9%
N#C/C(=N\Nc1cccc([N+](=O)[O-])c1)C(=O)c1ccc(Br)cc1 | -9.5 | 0.2% | 1.0% | 19.8%
CCC(C)NS(=O)(=O)c1ccc(OCC(=O)N2CCCC2)cc1 (centres undefined) | 4.9 | -9.6% | -2.0% | 0.2%

Screening data from PubChem BioAssay.
